# Assay outcomes (PubChem BioAssay)
# PINK1 expr mod = modulators of PINK1 expression; 410,000 tested, 0.2% active; Potency, µM (titrated, usually from 76.6 µM), for inactives: at the top dose activation (PINK1 increase), hits mostly activators; PINK1 immunofluorescence, high-content cytometry, 24 h; active = well fitted activation curve with a large enough effect; inconclusive = small, poorly fitted or top-dose-only effect; inactive = flat fitted curve, though single readings scatter; cell line not stated here;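 further: potency means the concentration at half of the fitted maximal effect; % of control where 0% means no effect; nearly all actives have a fitted effect of over 65% in size; a mitochondrial uncoupler was the plate control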
#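 Stable cell line, 250 cells/well, 12 h attachment; compounds pinned at 5 concentrations, 24 h; CCCP control. Fixed with nuclear dye, primary antibodies 12 h at 10 degrees C, secondary plus cell stain; laser-scanning cytometer read.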
# TRPML1 ag = activates the human TRPML1 channel; TRPML1-expressing cells, Ca2+ dye fluorescence, FDSS; host cell line not named in the record; reference of the full effect not given here; activation, % (test concentration not listed); 410,000 tested, 0.12% active; AID 624414; in the data active = activation above about 50%; inconclusive = about 30% to 50%; inactive = below about 30%; further: 0% is about no effect; the text of the record puts the active cut at 80%
# Target sequence (Q9GZU1 whole entry, looked up): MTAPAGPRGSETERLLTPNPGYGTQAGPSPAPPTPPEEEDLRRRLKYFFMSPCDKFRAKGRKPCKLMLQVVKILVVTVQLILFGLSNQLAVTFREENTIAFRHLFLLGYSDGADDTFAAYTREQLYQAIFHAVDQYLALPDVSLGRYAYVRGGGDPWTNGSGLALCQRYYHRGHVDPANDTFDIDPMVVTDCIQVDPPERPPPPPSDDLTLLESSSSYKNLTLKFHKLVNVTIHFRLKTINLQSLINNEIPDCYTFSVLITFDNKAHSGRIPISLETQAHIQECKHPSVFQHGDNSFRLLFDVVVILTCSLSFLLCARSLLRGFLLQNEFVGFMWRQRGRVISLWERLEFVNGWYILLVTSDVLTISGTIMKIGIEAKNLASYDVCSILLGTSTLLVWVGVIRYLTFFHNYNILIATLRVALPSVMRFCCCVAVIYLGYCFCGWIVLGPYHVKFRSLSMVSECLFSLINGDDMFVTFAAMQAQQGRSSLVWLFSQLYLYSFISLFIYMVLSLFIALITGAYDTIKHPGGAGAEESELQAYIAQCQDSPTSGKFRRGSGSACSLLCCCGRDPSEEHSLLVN
#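 Cells: TRPML1-DL, 1X Tet inducer, ~16 h at 37 degrees C/5% CO2. Dye: ABD Ca8 no-wash + quencher, 45-90 min RT. Read: 10 s baseline, compound add, 110 s agonist phase; 54-4 EC80 (4uM final), 110 s antagonist phase.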
# The depositor's hits bear a star; ? = inconclusive. These rows are one share of the data; the hit share may differ from the screen's.
SMILES,PINK1 expr mod,TRPML1 ag
CCCCN(C)c1ncnc2c1cnn2-c1cccc(Cl)c1,9.3%,2.5
Cc1oc2ncn(C)c(=O)c2c1C(=O)NCCCN1CCCCC1C (stereo not drawn),-0.5%,0.4
Cc1ccc2c(CC(=O)N3CCN(c4cccc(Cl)c4)CC3)coc2c1C,-1.9%,0.9
Cc1nnc(NC(=O)CSc2nccn2-c2ccc(Cl)cc2)s1,-10%,2.9
Cc1cc(SCC(=O)Nc2ccc(C(F)(F)F)cc2)nc(=O)[nH]1,3.0%,-0.1
Cc1cc(C)c(S(=O)(=O)n2cnc(C)c2)c(C)c1,1.9%,1.6
CCc1ccc(-n2nc3cc(C)c(NC(=O)c4cccc5ccccc45)cc3n2)cc1,-1.7%,-1.1
Cc1cc(Cl)ccc1OCC(=O)N1CCC(c2nc3ccccc3s2)CC1,3.8%,1.1
COc1cccc(C(=O)N(Cc2sccc2C)C2CCS(=O)(=O)C2)c1 (stereo not drawn),-0.5%,-0.5
CCOc1ccc(-c2cn3c(n2)sc2cc(C(=O)N4CCCC(C)C4)ccc23)cc1 (stereo not drawn),-1.1%,0.0
COc1ccc(-c2nc(C)c(CCNC(=O)c3ccc(F)c(F)c3)s2)cc1,-0.1%,3.4
O=C(CN1C=NS(=O)(=O)c2ccccc21)Nc1ccccc1F,1.3%,-0.6
CCOC(=O)c1cc(-c2ccccc2)n(-c2cccc(C(=O)Nc3cc(OC)cc(OC)c3)c2)c1C,-0.7%,-0.1
Cc1cc2ccccc2c[n+]1C,-0.2%,-0.5
Cc1ccccc1S(=O)(=O)Cc1ccc(C(=O)N2CCN(c3cccc(Cl)c3)CC2)o1,1.1%,2.8
COc1cc(NC(=O)c2cc3nc(-c4ccc(C)cc4)cc(C(F)(F)F)n3n2)cc(OC)c1OC,1.1%,-1.2
COc1ccc(Br)cc1CNC(=O)c1ccc(-n2c(C)cc3c2CCC(C)C3)cc1 (stereo not drawn),-1.2%,0.8
CCc1ccc(CN(Cc2ccco2)c2cnc(S(C)(=O)=O)nc2C(=O)Nc2c(C)cccc2C)cc1,4.8%,2.1
CC(C)C(=O)NCC(c1ccc2c(c1)OCO2)N1CCN(c2ccccc2F)CC1 (stereo not drawn),1.0%,1.6
Cc1cc(O)c2c(C)c(CC(=O)N3CCCCC3)c(=O)oc2c1,1.6%,-0.5
CCN(CCCNC(=O)c1cc2c(=O)n(CC)c3ccccc3c2s1)c1cccc(C)c1,3.6%,-0.5
Cc1cccc(Cn2c(CN3CCC(C(=O)NC(C)C)CC3)cc3ccccc32)c1,?,2.8
COCCNC(=O)C1CCCN(S(=O)(=O)c2ccc3c(ccn3C)c2)C1 (stereo not drawn),25%,0.7
CCc1c(C)sc(NC(=O)c2cc(-c3ccc(OC)cc3)on2)c1C#N,5.2%,0.0
Cc1cn(C)c(CC(=O)Nc2cccc(C#N)c2)c1C(=O)O,-0.5%,-0.6

# Gathered by group, the entries above with an aryl thioether with sulfur outside any ring.
SMILES,PINK1 expr mod,TRPML1 ag
Cc1nnc(NC(=O)CSc2nccn2-c2ccc(Cl)cc2)s1,-10%,2.9
Cc1cc(SCC(=O)Nc2ccc(C(F)(F)F)cc2)nc(=O)[nH]1,3.0%,-0.1

# Retrieved by compound from above, 3 records:
SMILES,PINK1 expr mod,TRPML1 ag
Cc1cc(C)c(S(=O)(=O)n2cnc(C)c2)c(C)c1,1.9%,1.6
Cc1ccccc1S(=O)(=O)Cc1ccc(C(=O)N2CCN(c3cccc(Cl)c3)CC2)o1,1.1%,2.8
Cc1cc(SCC(=O)Nc2ccc(C(F)(F)F)cc2)nc(=O)[nH]1,3.0%,-0.1

# More entries
SMILES,PINK1 expr mod,TRPML1 ag
CCc1ccc(NS(=O)(=O)c2ccc3oc(=O)c4ncn(CC)c4c3c2)cc1,2.2%,0.9
COc1ccccc1C(=O)Nc1ccc2nc(SCCOc3ccccc3C)sc2c1,-0.3%,0.1
CCOC(=O)c1noc2ncnc(Nc3cccc(OC)c3)c12,0.8%,-0.7
COc1ccccc1C(=O)Nc1c(C(=O)N2CCN(c3ccccc3F)CC2)oc2ccccc12,-2.9%,1.4
COc1cccc(C(=O)Nc2nc(-c3nnn(-c4cccc(Cl)c4C)c3C)ns2)c1,4.3%,2.2
O=C(CCn1c(=O)c2ccccc2n(Cc2cccc(F)c2)c1=O)NCc1ccc2c(c1)OCO2,9.4%,-1.1
COCCNC(=O)CSc1cn(CC(=O)N2CCCCCC2)c2ccccc12,1.0%,1.7
CCCCNC(=O)CSc1nc2nc(C)c(Cc3ccccc3C)c(C)n2n1,2.0%,1.7
Cc1cccc(NC(=O)C2CCCN(S(=O)(=O)c3c(C)n[nH]c3C)C2)c1 (stereo not drawn),4.0%,-1.2
O=C(CSc1nc(-c2ccc(F)cc2)[nH]c1-c1ccc(F)cc1)Nc1ccc2c(c1)OCCO2,?,1.7
COCC(=O)n1nc(-c2ccco2)nc1NCc1ccccc1Cl,0.0%,-0.1
Cc1ccc(O)c(NC(=O)COCc2cc(-c3ccco3)on2)c1,5.2%,0.5
COc1cc2ncc3c(-c4ccccc4)nn(CC(=O)NC4CCCCC4)c3c2cc1OC,2.5%,0.7
COc1ccc(NC(=O)C2=C(C)C(=O)OC23CCN(C(C)C)CC3)cc1Cl,2.1%,1.1
O=C(NCC(c1cccnc1)N1CCc2ccccc2C1)C(=O)Nc1ccccc1F (stereo not drawn),0.2%,-0.2
Cc1ccc(S(=O)(=O)c2nc(-c3ccccc3F)oc2NCc2ccccc2)cc1,-1.2%,-0.2
COc1ccc(N2C(=O)c3ccccc3NC2c2ccc(OC)c(COc3ccc(NC(C)=O)cc3)c2)cc1 (stereo not drawn),2.6%,-0.6
CCC(C)NC(=O)C1CCN(C(=O)c2cc3sccc3n2Cc2ccc(Cl)cc2)CC1 (stereo not drawn),0.6%,1.0
COc1ccc(CNC(=O)C2CCN(S(=O)(=O)c3ccc(C)cc3)CC2)cc1,-0.6%,-0.5
CN(C)c1ccc(Nc2nc3ccccc3n3nnnc23)cc1,0.7%,-1.1
COc1cccc(NC(=O)Cn2c(=O)oc3cc(S(=O)(=O)N4CCCCC4)ccc32)c1,-0.3%,2.3
COc1cc(NC(=O)c2nc3ccccc3n(C)c2=O)cc(OC)c1OC,1.3%,-0.1
COc1ccc2c(CNCCc3ccco3)c(C(=O)O)n(Cc3ccc(F)cc3)c2c1,-1.4%,-0.5
COc1cccc(N2CCN(C(=O)c3cnn(-c4ccc(C)cc4C)c3C3CCN(C(=O)OC(C)(C)C)CC3)CC2)c1,0.4%,?
CC(C)CN(CC(C)C)S(=O)(=O)c1ccc(C(=O)Nc2sc3c(c2C(N)=O)CCN(C(C)C)C3)cc1,17%,0.7

# The results go on.
SMILES,PINK1 expr mod,TRPML1 ag
CSc1ncc(Cl)c(C(=O)Nc2ccc(S(=O)(=O)N3CCC(C)CC3)cc2)n1,1.9%,-0.6
O=C(Nc1cccc(-c2nc3ncccc3o2)c1)c1ccc(-c2cccc(Cl)c2Cl)o1,11%,-0.1
COc1cc(OC)c(NC(=O)c2nc(-c3ccncc3)no2)cc1Cl,1.2%,-0.3
CCOc1ccc(NC(=O)c2ccc(-c3nc(COc4ccccc4)c(C)o3)cc2)cc1,1.8%,-0.6
Cc1cc(N2CCN(c3cc(Cl)ccc3C)CC2)n2nc(-c3ccccc3)nc2n1,-1.3%,2.4
CCOc1ccc(CCNC(=O)Cn2ncc3c([nH]c4ccccc43)c2=O)cc1OCC,-0.2%,1.7
CCn1cc2nc(SCc3cccc(C)c3)n(CCc3ccccc3)c(=O)c2n1,5.1%,1.0
COc1cccc(Cn2c(Oc3cc(C)cc(C)c3)nc3c2c(=O)n(C)c(=O)n3C)c1,0.4%,0.0
Cc1ccc(CNC(=O)c2cnn3c(C)c(Cc4c(F)cccc4Cl)c(C)nc23)cc1,1.2%,-0.1
COc1cc(NC(=O)CN2C(=O)C(c3ccc(C)cc3)=NC23CCCCCC3)cc(OC)c1,1.2%,1.4
Brc1cccc[n+]1CCC[n+]1ccccc1Br,-0.6%,-0.5
CCOC(=O)C1=C(CS(=O)(=O)c2ccc(C)c(C)c2)NC(=O)NC1c1ccccc1OCC (stereo not drawn),0.2%,1.0
CCOC(=O)c1cc(-c2ccccc2)n(-c2cccc(C(=O)Nc3cccc(F)c3)c2)c1C,0.6%,1.7
CCCCCn1c(=O)[nH]c2cc(C(=O)NCc3ccc(C)cc3)ccc2c1=O,-0.4%,0.3
CCOc1ccc(-c2nnc(SCC(=O)Nc3cc(C)ccc3OC)o2)cc1,3.0%,1.9
CCc1ccccc1NC(=O)Nc1cc(C(=O)NCc2ccc(C)cc2)ccc1N1CCCC1,-0.8%,-0.6
COc1ccc(OC)c(CNC(=O)c2nn(C)c3c2CSc2ccccc2-3)c1,0.5%,0.7
CC(=O)c1cccc(NC(=O)CCS(=O)(=O)c2cc(Br)cc3c2N(C(=O)C2CC2)CC3)c1,3.8%,-0.1
COc1ccccc1OCc1nc(C#N)c(NCc2ccc(C)cc2)o1,0.0%,-0.3
CC(=O)N1CCc2c(sc3c2c(=O)n(-c2ccccc2)c(=O)n3CC(=O)Nc2ccccc2C)C1,1.2%,0.2
CCOc1ccc(C2c3c(-c4ccccc4O)n[nH]c3C(=O)N2Cc2ccncc2)cc1 (stereo not drawn),6.9%,0.9
O=S(=O)(c1ccc(C(F)(F)F)cc1)N1CCN(c2nc(-c3cccs3)nc3ccccc23)CC1,0.0%,1.3
O=C(NC1CC(=O)N(c2ccccc2)C1)c1ccc(S(=O)(=O)N2CCCCC2)cc1 (stereo not drawn),-0.8%,-0.2
COc1cc(CNCCSc2nnnn2C)ccc1OCc1ccccc1,-0.6%,-0.2
CCC(=O)N1CCc2cc(S(=O)(=O)CCC(=O)N3CCN(c4ccccc4Cl)CC3)ccc21,-0.2%,-0.5

# (further entries)
SMILES,PINK1 expr mod,TRPML1 ag
CC(=O)N1CCC(N(Cc2ccco2)C(=O)Nc2ccc(C)c(Cl)c2)CC1,0.9%,0.2
O=C(CN1C(=O)C2(SCC(=O)N2c2ccc(F)c(F)c2)c2ccccc21)Nc1cccc(Cl)c1 (stereo not drawn),?,1.2
COc1cc(OC)c(NC(=O)CSc2nc3ccncc3[nH]2)cc1Cl,1.0%,1.0
Cn1c(=O)c2cc(C(=O)Nc3cccc(C#N)c3)sc2c2ccccc21,0.3%,-0.7
O=C(OCc1cc(=O)n2nc(-c3cccs3)sc2n1)c1ccc(Cl)cc1,?,-0.8
COc1cc(C(=O)Nc2ccc3nc(SCc4ccccc4)sc3c2)cc(OC)c1OC,0.8%,-0.9
CC1CCN(S(=O)(=O)c2cc(C(=O)Nc3ccc(Br)cc3F)n(C)c2)CC1,1.0%,2.9
CCOC(=O)c1cccc(NS(=O)(=O)c2c(C)nc3sc(C)cn3c2=O)c1,-0.4%,-0.4
COc1ccc(NC(=O)CSc2nc3c(oc4ccccc43)c(=O)n2-c2ccccc2)cc1OC,2.3%,-0.7
CC(C)(C)C1CCc2c(sc(NC(=O)c3ccc(Cl)cc3)c2C(=O)NCc2ccco2)C1 (stereo not drawn),2.7%,0.2
CC(C)c1nc2sc3c(N4CCCCC4)ncnc3c2c2c1CCCC2,-1.4%,-0.5
Cc1cccc(Nc2ncnc3onc(-c4ccc(Cl)cc4)c23)c1C,-5.3%,2.7
CCc1ccc(CNC(=O)c2nn(-c3ccc(OC)c(Cl)c3)c(=O)c3c2c2ccccc2n3C)cc1,3.4%,-0.5
Oc1ccc(-c2nc3ccc(Cl)cn3c2Nc2ccc(Cl)cc2)cc1,0.9%,0.4
CCCCS(=O)(=O)c1oc(-c2cccs2)nc1S(=O)(=O)c1ccccc1,-1.4%,0.9
CCOC(=O)c1ccc(NC(=O)CC2Nc3cc(C)c(C)cc3NC2=O)cc1 (stereo not drawn),5.0%,0.1
CN(C)c1ccc(/C=C/c2cc(=O)[nH]c3ccccc23)cc1,-0.8%,-0.4
CC(C)CCNC(=O)CSc1c2c(nc3ccc(Cl)cc13)CCCC2,1.7%,1.0
Cc1cc(F)ccc1NC(=O)CS(=O)(=O)c1cccc2nsnc12,2.9%,1.6
Cc1c2cnn(CC(=O)NCCc3ccccc3)c(=O)c2c(C)n1Cc1ccccc1Cl,-0.8%,0.5
CCN(C(=O)C1CCN(S(=O)(=O)c2cc(Br)cc3c2N(C(C)=O)CC3)CC1)c1cccc(C)c1,0.7%,1.5
CCc1cc2c(cc3c(=O)n(CC(=O)N4CCN(c5cc(Cl)ccc5C)CC4)ncn32)s1,0.0%,0.9
COc1ccc(CCNC(=O)c2ccc3c(c2)N(Cc2cccc(Cl)c2)C(=O)c2ccccc2S3=O)cc1OC (stereo not drawn),2.1%,0.0

# In the list so far, 5 have bromine.
SMILES,PINK1 expr mod,TRPML1 ag
COc1ccc(Br)cc1CNC(=O)c1ccc(-n2c(C)cc3c2CCC(C)C3)cc1 (stereo not drawn),-1.2%,0.8
Brc1cccc[n+]1CCC[n+]1ccccc1Br,-0.6%,-0.5
CC(=O)c1cccc(NC(=O)CCS(=O)(=O)c2cc(Br)cc3c2N(C(=O)C2CC2)CC3)c1,3.8%,-0.1
CC1CCN(S(=O)(=O)c2cc(C(=O)Nc3ccc(Br)cc3F)n(C)c2)CC1,1.0%,2.9
CCN(C(=O)C1CCN(S(=O)(=O)c2cc(Br)cc3c2N(C(C)=O)CC3)CC1)c1cccc(C)c1,0.7%,1.5
